Assay outcomes (PubChem BioAssay)
MARV entry inh: inhibitors of Marburg virus binding or cell entry | Marburg virus pseudotyped entry inhibition, cell reporter; control for the full effect not named in the record; about a third of the inactives were read at about 46 µM | Potency, µM (series often up to 37.8 µM), for the others: at the highest dose activity change, negative = inhibition, most hits filed as inhibitors | 300,000 compounds, 1.8% hits | AID 540276; active = well fitted inhibition curve with a large enough effect; inconclusive = small, poorly fitted or top-dose-only effect, or effect the other way; inactive = flat fitted curve, though single readings scatter; tested in HEK293 cells; about a fifth of its hits are not listed in these tables; note: % is set by controls: 0 for no effect and ±100 for the full control effect; luciferase read-out
Cruzain noTriton: cruzain (T. cruzi) inhibition without detergent. P25779. purified cruzain, Z-FR-AMC fluorescence, no detergent. Potency, µM, for inactives: max response, negative = inhibition, usual class: inhibitors. 200,000 compounds, 2.3% hits. AID 1476;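 note: plate controls were enzyme without inhibitor for no effect and buffer without enzyme for full effect; nearly all actives have a fitted effect of over 40% in size; top concentration of the series not given in the record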
Target sequence (P25779 123-467 limits assumed): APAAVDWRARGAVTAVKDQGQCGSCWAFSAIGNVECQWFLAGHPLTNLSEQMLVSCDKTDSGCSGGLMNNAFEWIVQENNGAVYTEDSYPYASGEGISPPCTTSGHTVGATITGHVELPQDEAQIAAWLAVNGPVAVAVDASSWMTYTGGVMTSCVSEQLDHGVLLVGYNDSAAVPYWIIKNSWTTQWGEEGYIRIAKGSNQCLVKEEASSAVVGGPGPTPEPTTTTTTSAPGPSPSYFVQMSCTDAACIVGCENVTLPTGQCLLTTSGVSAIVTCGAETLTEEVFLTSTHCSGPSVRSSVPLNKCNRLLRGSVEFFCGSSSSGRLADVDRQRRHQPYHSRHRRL
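Purified cruzain at 1.5 nM, pre-incubated 15 min with compound at room temperature in 100 mM sodium acetate pH 5.5, 5 mM DTT, 0.00005% Triton X-100. Reaction started with 2 uM Z-FR-AMC; AMC fluorescence increase over 60 s gives rate.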
NS1 inh: influenza NS1 inhibition | S. cerevisiae slowed by influenza A NS1, growth recovery by OD600 | Potency, µM (top dose mostly 46.1 µM), for the others: at the highest dose activity, positive = more growth | 270,000 compounds, 0.4% hits; active means well fitted rising curve with a large enough effect; inconclusive means small, poorly fitted or top-dose-only effect; inactive means no such curve, though single readings can be large or run the other way; note: nearly all actives have a fitted effect of over 50% in size
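Read-out: OD600 growth recovery of NS1-expressing budding yeast. Cells grown overnight at 30C in -URA glucose medium, washed, resuspended and diluted 1:100 in 2% galactose assay medium, pH 6.0. Same strain lacking NS1 served as positive control.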
2A StopGo: lowers the luciferase signal of an FMDV 2A StopGo reporter; human cells with a luciferase reporter of 2A StopGo recoding; control for the full effect not named in the record; 410,000 compounds, 1.2% hits; Potency, µM (top dose mostly 57.9 µM), without a hit: at the highest dose signal change, negative = less light; active = well fitted falling curve with a large enough effect; inconclusive = small, poorly fitted or top-dose-only effect; inactive = no such curve, though single readings can be large or run the other way; tested in HEK293T cells; note: % is set by controls: 0 for no effect and ±100 for the full control effect; nearly all actives have a fitted effect of over 45% in size; luciferase light after 4 h
Lassa entry inh: inhibitors of Lassa virus binding or cell entry | Lassa virus pseudotype entry inhibition, cell reporter; control for the full effect not named in the record | Potency, µM (series often up to 37.9 µM), without a hit: at the top dose activity change, negative = inhibition, hits mostly inhibitors | 300,000 compounds, 1.2% hits; active means well fitted inhibition curve with a large enough effect; inconclusive means small, poorly fitted or top-dose-only effect, or effect the other way; inactive means flat fitted curve, though single readings scatter; tested in HEK293 cells; note: % is set by controls: 0 for no effect and ±100 for the full control effect; nearly all actives have a fitted effect of over 50% in size; luciferase read-out
SARS PLP yeast: inhibitors of SARS-CoV papain-like protease in yeast. S. cerevisiae expressing SARS-CoV PLpro, growth rescue; control for the full effect not named in the record. Potency, µM (top dose mostly 32.9 µM), inactives show top-dose activity, positive = growth rescue. 330,000 compounds, 0.19% hits; active means well fitted rising curve with a large enough effect; inconclusive means small, poorly fitted or top-dose-only effect; inactive means no such curve, though single readings can be large or run the other way; note: 0% is about no effect; nearly all actives have a fitted effect of over 55% in size; growth read by luminescence after 48 h
RE007 growth inh: less growth of the S. pombe RE007 Vpr strain | AID 651644 | 360,000 compounds, 0.21% hits | Potency, µM (series often up to 92.2 µM), inactives show top-dose activity change, negative = less growth | S. pombe RE007 Vpr strain, BacTiter-Glo ATP luminescence, 24 h; control for the full effect not named in the record; active = well fitted falling curve with a large enough effect; inconclusive = small, poorly fitted or top-dose-only effect; inactive = no such curve, though single readings can be large or run the other way;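 note: % is set by controls: 0 for no effect and ±100 for the full control effect; nearly all actives have a fitted effect of over 50% in size; the assay follows cell death caused by Vpr and the record does not say whether a fall means rescue or toxicity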
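Fission yeast RE007 carrying one integrated HIV-1 vpr copy, seeded at OD 0.01 in PMG+AL medium with 23 nL pinned compound. Grown 24 h at 30 degrees; viability read by BacTiter-Glo luminescence after 5 min.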
Cruzain Triton: blocks cruzain activity in presence of Triton detergent. P25779. purified cruzain, Z-FR-AMC fluorescence, 0.01% Triton. Potency, µM, without a hit: max response, negative = inhibition, actives largely listed as inhibitors. 200,000 compounds, 0.43% hits. AID 1478;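 note: plate controls were neutral wells for no effect and buffer without enzyme for full effect; nearly all actives have a fitted effect of over 40% in size; top concentration of the series not given in the record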
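Steps: dispense cruzain (1.5 nM final) in acetate buffer pH 5.5 with DTT and 0.01% Triton X-100; pin-transfer compounds; incubate 15 min RT; add Z-FR-AMC (2 uM final); read fluorescence every 30 s, using the 60 s intensity change.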
* = called active by the depositor; ? = inconclusive; . = no result given; & = joins results of further samples; [ ] = dose if it differs, or a comment. Unless noted, calls come from the whole dose curve; as a rule, active = well fitted curve in the direction sought with a large enough effect; inconclusive = small, poorly fitted or top-dose-only effect, or another doubt; inactive = no such curve, though single readings can be large; an effect the other way counts as inactive or inconclusive. Potency is the fitted concentration of half-maximal effect.

SMILES	MARV entry inh	Cruzain noTriton	NS1 inh	2A StopGo	Lassa entry inh	SARS PLP yeast	RE007 growth inh	Cruzain Triton
CC(O/N=C\c1ccccc1O)C(=O)Nc1ccccc1C(=O)N1CCOCC1 (stereo unspecified)	10%	9%	19%	-7%	0%	-7%	16%	-5.7%
CC1CN(C(=O)c2ccc(COc3ccccc3Br)o2)CC(C)O1 (stereo unspecified)	?	.	.	-10%	-26%[46.1 µM]	-1%	-7%	.
S=C(NCc1ccc(Cl)cc1)NCc1ccco1	.	.	-4%	38%[activator]	.	-1%	4%	.
Cc1cc(NC(=O)CCC(=O)N(Cc2ccco2)C(C(=O)NC2CCCCC2)c2cccs2)no1 (stereo unspecified)	-25%[46.1 µM]	.	-4%	-1%	6%	-1%	2%	.
COC(=O)c1cccc(C23CC4(C2)[C@H](CN(C)[C@@H]4c2ccccc2)C3c2ccccc2)c1 (stereo partly specified)	.	-2%	6%	-18%	.	4%	-3%	-1.5%
CCn1c(C)c(C)c2cc(C(=O)NCCc3cc(OC)c(OC)c(OC)c3)ccc21	.	?	.	?	?	.	.	-1.2%
O=C(CSc1nnc(Nc2ccccc2)s1)NC1CCS(=O)(=O)C1 (stereo unspecified)	3%[46.1 µM]	.	.	10%	10%[46.1 µM]	-2%	-5%	.
CCN1c2ccccc2N(C)C1(C)c1ccccc1 (stereo unspecified)	?	-7%	22%	?	?	-23%	?	-3.6%
COc1ccc(CC(=O)NC(=S)NNC(=O)COc2c(C)cccc2C)cc1	18%	?	-12%	?	2%	?	34%	-3.1%
O=C1NN=C(c2ccc(Cl)cc2)CC1c1cccc(Cl)c1 (stereo unspecified)	0%	-16%	?	-22%	1%	-17%	-18%	-9.2%
CCOC(=O)N1CCC(NC(=O)Cn2cc3c(n2)CCC(C)C3)CC1 (stereo unspecified)	0%	18%	0%	-23%	-19%	26%	-1%	5.5%
Cc1sc(NC(=O)COc2ccccc2)c(C#N)c1-c1ccccc1	17%	-18%	7%	-4%	18%	-5%	-1%	?
O=C(CN(Cc1ccccc1)S(=O)(=O)c1ccccc1)N/N=C/c1ccccc1C(=O)O	10%[46.1 µM]	.	4%	-14%	-16%[46.1 µM]	-1%	7%	.
CC(=O)CCN1CCOCC1	2%	-5%	5%	12%	-23%	-4%	1%	7.5%
O=C(NCc1n[nH]c(=S)n1-c1ccccc1)c1ccc(S(=O)(=O)N2CCCCC2)cc1	-1%	.	.	-6%	0%	1%	9%	.
COC(=O)c1cc(S(=O)(=O)NCc2cc(OC)c(OC)c(OC)c2)cn1C	.	.	4%	-3%	.	4%	0%	.
Cc1cc(C)c2cc(C(c3nnnn3CC3CCCO3)N3CCN4CCCC4C3)c(=O)[nH]c2c1 (stereo unspecified)	0%&-11%	-1%	?	-13%	?	5%	-2%	-0.5%
COc1ccc2c(c1OC)C(=O)N(c1ccc(C)cc1)C2=O	1%[46.1 µM]	.	1%	63%[activator]	.	0%	-17%	.
CC1(OC(=O)C2CCCC2)C(=O)C=C2C=C(c3ccsc3)N(Cc3ccc4c(c3)OCO4)C=C2C1=O (stereo unspecified)	-8%[14.2 µM]	.	?	-9%	.	1%	-2%	.
O=C(NCc1cccs1)c1ccc(CSc2nc3ccncc3n2Cc2ccccc2F)cc1	?	48%	.	23%	.	.	.	6.5%
COc1ccc(-c2nnc(NC(=O)CSc3ccc(C)cc3)s2)cc1OC	?	-28%	24%	-16%	-1%	2%	4%	-2.3%
CNC(=O)C(=O)N/N=C/c1ccc(Br)cc1	.	.	1%	0%	.	-1%	12%	.
Cc1cc(C)c2c(=O)n(CC(=O)Nc3cccc(Cl)c3C)sc2n1	.	.	-53%	-1%	.	-17%	?	.
COc1ccc(-n2c(C)cc(C(=O)COC(=O)c3cc(NC(=O)c4cccs4)c(OC)c(OC)c3)c2C)cc1	-5%	?	16%	-8%	.	5%	6%	1.0%
N#C/C=C(/N)c1ccc(Br)cc1	-4%[46.1 µM]	-1%	20%	0%	-19%	-26%	-3%	2.0%
SMILES	MARV entry inh	Cruzain noTriton	NS1 inh	2A StopGo	Lassa entry inh	SARS PLP yeast	RE007 growth inh	Cruzain Triton
CC(C)(C)C(=O)NNC(=O)c1cc(C(C)(C)C)nn1Cc1ccccc1	10µM*	.	-1%	0%	?	-1%	1%	.
NC(=O)c1nsc(C(=O)N(CC(=O)NC2CCCCC2)c2cccc(F)c2)c1N	-3%[46.1 µM]	.	4%	9%	16%	1%	-4%	.
CCSc1nc(C2CC2)cc(-c2cccs2)c1C#N	2%	-2%	-2%	-8%	-1%	-16%	-7%	-1.5%
CC(C)c1nc(CNC(=O)C2CCC(=O)N(Cc3ccc(Cl)cc3)C2)no1 (stereo unspecified)	15%[46.1 µM]	.	-7%	27%	7%[46.1 µM]	2%	20%	.
Cn1c2c(c(=O)n3ncnc13)CCCC2	-6%	.	1%	6%	10%	-4%	-9%	.
CCc1ccc(N2CC(C(=O)OCC(=O)NNC(=O)c3ccccc3)CC2=O)cc1 (stereo unspecified)	-24%	.	.	-3%	2%	-9%	-7%	.
Cc1ccccc1Nc1nc(N)nc(COC(=O)C(NC(=O)c2ccco2)C(C)C)n1 (stereo unspecified)	27%	4%	-3%	-5%	?	3%	4%	-5.0%
CCCCCCn1c2c(c(=N)c3c1CCC3)CCC2	8.2µM*	-10%	-34%	?	3.7µM*	-6%	-9%	4.5%
CCCN(CCO)Cc1cccc(Oc2ccccc2)c1	-17%	3%	-5%	0%	11%	7%	5%	8.7%
CCCc1cc(NCCCn2ccnc2)n2nc(C)c(-c3ccccc3)c2n1	?	.	1%	0%	-1%	0%	0%	.
Cc1cc2cc(CNC(=O)Cc3ccc([N+](=O)[O-])cc3)ccc2n1C	?	.	.	-21%	?	-1%	5%	.
CN(C)c1ccc(CNC(=O)C2CCN(C(=O)c3ccc(-n4ccc5ccccc54)s3)CC2)cc1	.	10%	.	?	?	.	.	-3.1%
O=C(CCC(=O)N(CC(=O)NC1CCCC1)Cc1ccc2c(c1)OCO2)Nc1ccccn1	2%	3%	-10%	-13%	-2%	5%	12%	-0.4%
CCN(CC)CCCN=C(C)c1c(O)n(C2CCCCC2)c(=O)[nH]c1=O	-9%	10%	-7%	-3%	6%[14.3 µM]	3%	6%	4.1%
CCOC(=O)c1ccc(NS(=O)(=O)c2cnc[nH]2)cc1	8%[46.1 µM]	9%	-1%	27%	5%	-6%	0%	9.9%
Cc1cc(C)n(-c2ccc(C(=O)OCC(=O)NC(c3ccccc3)c3ccccc3)cc2)n1	1%	-7%	-7%	0%	?	0%	?	-2.1%
COc1ccc(N2CCCn3c2nc2c3c(=O)n(CCc3ccccc3)c(=O)n2C)cc1	-4%	?	1%	?	?	-3%	6%	-6.9%
CC(C(=O)O)N1C(=O)CSC1=S (stereo unspecified)	?	-2%	-2%	-25%	-2%	12%	-4%	2.9%
CCCN1C(=O)c2cc(C(=O)Nc3ccccc3OC)ccc2C1Nc1ccccc1OC (stereo unspecified)	?	.	0%	?	?	0%	3%	.
OCC#Cc1ncc(C(F)(F)F)cc1Cl	-9%	.	.	-17%	-24%	-6%	-16%	.
CCC(=O)NCCSc1c[nH]c2ccccc12	17%[46.1 µM]	7%	-2%	-10%	9%	-3%	-7%	5.7%
CCCN(CCC)CCNC(=O)CS(=O)Cc1nc(-c2ccc(OC)c(OC)c2)oc1C (stereo unspecified)	-4%[46.1 µM]	-8%	.	-1%	4%[46.1 µM]	.	.	-0.8%
CC(C)(C)C(=O)NNC(=O)C1CC1(c1ccccc1)c1ccccc1 (stereo unspecified)	4%[46.1 µM]	.	-3%	12%	?	1%	9%	.
Cc1cccc(C)c1Nc1c(-c2ccsc2)nc2ncccn12	?	-9%	10%	?	?	-2%	-19%	-6.8%
O=C1c2cc([N+](=O)[O-])cc3cc([N+](=O)[O-])cc(c23)C(=O)N1c1ccccn1	?	-6%	6%	13µM*	?	24%	0%	-3.4%
SMILES	MARV entry inh	Cruzain noTriton	NS1 inh	2A StopGo	Lassa entry inh	SARS PLP yeast	RE007 growth inh	Cruzain Triton
CCNC(=S)NC1CC2CCCC(C1)N2Cc1ccco1 (stereo unspecified)	?	1%	0%	.	-6%	4%	4%	3.0%
COc1ccc2c(C)c(CC(=O)NCCc3ccc(Cl)cc3)c(=O)oc2c1C	1%[46.1 µM]	6%	.	-5%	8%[46.1 µM]	.	.	-0.2%
CC(C)C(NC(=O)OCc1ccccc1)C(=O)NCC(=O)OC(C)(C)C (stereo unspecified)	24%	-3%	-9%	0%	-13%	-3%	21%	-2.3%
Cn1c(=O)c(=O)n(C)c2cc(N3CCCC3)c(NS(=O)(=O)c3ccc(Cl)cc3)cc21	.	.	10%	-6%	.	-6%	1%	.
Cc1ccc(C(=O)NC(C)c2ccc3c(c2)OCO3)s1 (stereo unspecified)	-15%	.	.	2%	-22%	-1%	3%	.
COc1cccc(CNC(=O)CSc2nnc(C)c3c(C)n(-c4ccccc4)nc23)c1	.	13%	.	-28%	21%[46.1 µM]	.	.	-5.2%
CCOC(=O)c1c(NC(=O)C(NCCN(C)C)c2ccccc2)sc2c1CCCC2 (stereo unspecified)	?	.	13%	-16%	11µM*	-1%	17%	.
CCOc1ccccc1Nc1ccc(C(=O)O)cc1[N+](=O)[O-]	6%[46.1 µM]	.	.	-16%	11%[46.1 µM]	-2%	-21%	.
CCSc1nc2ccccc2c(OCc2ccc(Cl)cc2)c1C(=O)OC	.	?	.	-17%	-22%[46.1 µM]	.	.	-0.9%
CCc1ccccc1NC(=O)[C@@H](c1ccccc1)N1Cc2ccccc2C1=O	?	-8%	.	4%	-20%[46.1 µM]	.	.	-1.3%
COc1cccc(N2CCN(c3ccc(S(=O)(=O)N4CCN(C)CC4)cc3[N+](=O)[O-])CC2)c1	?	.	.	?	?	-2%	-6%	.
CC1=NN(c2nc(N)nc(/C(C#N)=C/c3ccc([N+](=O)[O-])o3)n2)C(C)(C)C1	?	.	.	?	-1%	.	15%	.
COc1ccc(O)c(C2(O)C(=O)c3ccccc3C2=O)c1	6%[46.1 µM]	.	?	23%	0%	1%	-2%	.

Rows are unselected; overall some 4.7% were active at least once.
